hNpr1 antagonist: blocks ANP-stimulated signaling of human Npr1 receptor | P16066 | HEK293 hNpr1 GloSensor cGMP, ANP-stimulated luminescence | Potency, µM (series often up to 46.3 µM), inactives show at the top dose activity change, negative = inhibition, most hits filed as inhibitors | hit rate 1.6% among 76,000; active = well fitted inhibition curve with a large enough effect; inconclusive = small, poorly fitted or top-dose-only effect; inactive = no such curve, though single readings can be large or run the other way;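 also: nearly all actives have a fitted effect of over 60% in size; nearly all hits also lower the signal before the agonist is added; a reference antagonist and vehicle were the controls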
Target sequence (P16066 whole entry, looked up): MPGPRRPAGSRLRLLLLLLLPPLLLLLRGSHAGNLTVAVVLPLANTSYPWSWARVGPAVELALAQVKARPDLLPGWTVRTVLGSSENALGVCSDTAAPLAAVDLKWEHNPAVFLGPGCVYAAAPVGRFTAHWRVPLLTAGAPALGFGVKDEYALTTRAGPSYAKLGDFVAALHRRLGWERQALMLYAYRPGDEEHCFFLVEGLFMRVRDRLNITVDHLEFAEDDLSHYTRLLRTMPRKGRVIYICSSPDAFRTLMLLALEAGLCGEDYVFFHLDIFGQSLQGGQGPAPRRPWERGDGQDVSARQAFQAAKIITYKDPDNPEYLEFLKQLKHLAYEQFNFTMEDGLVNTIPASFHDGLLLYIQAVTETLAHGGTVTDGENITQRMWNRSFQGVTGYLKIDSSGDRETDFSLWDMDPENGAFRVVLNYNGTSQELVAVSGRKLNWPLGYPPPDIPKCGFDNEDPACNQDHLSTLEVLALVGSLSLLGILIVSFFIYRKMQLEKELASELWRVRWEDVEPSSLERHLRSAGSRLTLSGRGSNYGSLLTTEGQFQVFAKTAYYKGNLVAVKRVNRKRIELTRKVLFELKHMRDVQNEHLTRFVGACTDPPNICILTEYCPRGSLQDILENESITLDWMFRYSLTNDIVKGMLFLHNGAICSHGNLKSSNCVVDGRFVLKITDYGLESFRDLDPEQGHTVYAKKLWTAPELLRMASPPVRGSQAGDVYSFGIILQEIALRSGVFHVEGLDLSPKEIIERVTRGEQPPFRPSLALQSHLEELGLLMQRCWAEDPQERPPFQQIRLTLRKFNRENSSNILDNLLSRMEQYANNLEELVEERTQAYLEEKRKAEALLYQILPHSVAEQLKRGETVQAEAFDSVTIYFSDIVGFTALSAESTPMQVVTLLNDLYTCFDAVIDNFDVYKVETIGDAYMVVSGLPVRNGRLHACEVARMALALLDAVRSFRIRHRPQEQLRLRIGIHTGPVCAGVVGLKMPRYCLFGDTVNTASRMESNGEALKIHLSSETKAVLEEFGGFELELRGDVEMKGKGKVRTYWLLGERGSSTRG
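HEK293 cells stably expressing human Npr1 and cGMP GloSensor pGS-40F, loaded 2 h with 2% GloSensor reagent, given compound 30 min at room temperature. Luminescence read before and 20 min after 0.1 nM hNppA.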
* marks the source's active call; other numbers are inactive results; ? = inconclusive; [ ] = dose if it differs, or a comment. % is scaled to controls: 0 for no effect and ±100 for the full control effect; potency is read from the fitted curve at half-maximal effect. Some of the compounds tested, so the mix of outcomes need not match the whole.

SMILES	hNpr1 antagonist
CC1(C)N=C(c2ccccc2)C(=O)N1CC(=O)NCCC1=CCCCC1	9.4%
CC1CCN(C(=O)C[C@@H]2c3nc(NC(=O)c4ccc(F)cc4)sc3C[C@@H]3[C@](C)(CO)[C@H](O)CC[C@]32C)CC1	-0.5%
Cn1nc(C(=O)N2C[C@@H](Oc3ccccc3)C[C@H]2C(=O)N2CCOCC2)c2ccccc21	12.8%
Cc1c[nH]c(C(=O)N2CCCC(CCc3cccc(C(F)(F)F)c3)C2)c1 (configuration not stated)	-12.3%
CCc1ccccc1S(=O)(=O)N1CCN(C2CCN(CCC(C)C)C2=O)CC1 (configuration not stated)	-2.4%
COc1ccc(C(=O)N2CCN(S(=O)(=O)c3ccc(F)cc3)C[C@@H]2C(=O)N[C@H]2CCCNC2=O)cc1	-1.6%
Cc1ccc2nc3n(c2c1)[C@@H](CNC(=O)NC(C)C)COC3	1.7%[70.6 µM]
CCN(Cc1ccccc1)C(=O)CC1CCCN(c2cn[nH]c(=O)c2)C1 (configuration not stated)	2.4%
CC(C)(O)CCc1cccc(C(=O)N[C@H]2CCC[C@H]2C(N)=O)c1	-0.8%
CCCc1nn(-c2ccccc2C)c(OC(C)=O)c1-c1ccc(NC(C)=O)cc1	-2.7%
CC(NC(=O)CN1C(=O)COc2ccc(C(=O)COc3cccc(F)c3)cc21)c1ccccc1 (configuration not stated)	0.5%
C[C@@H](NCc1ccccc1)c1onc(-c2ccc(F)cc2)c1C(=O)O	4.2%[70.6 µM]
CCC(c1cccs1)N1C(=O)[C@H]2CN(S(=O)(=O)c3ccc(F)cc3)C[C@H]2C1=O (some centres not stated)	1.0%
c1cc(-c2ncon2)cc(N2CCc3nc[nH]c3C2)n1	1.2%
NC(=O)c1cccc(-c2ccc3c(n2)CN(Cc2nc4ccccc4s2)C(=O)CO3)c1	-21.5%[70.6 µM]
O=C1COc2ccc(-c3ccsc3)nc2CN1Cc1ccccc1	-24.8%[70.6 µM]
O=C(NCC1CCCO1)c1ccc(-c2ccc(N3CCSCC3)nc2)cc1 (configuration not stated)	-15.6%
O=C(c1ccc(Cn2cccn2)o1)N1CCOCC(O)(CN2CCCC2)C1 (configuration not stated)	5.8%
CN1CCN(Cc2cn3c(=O)n(C)cc(-c4ccccc4F)c3n2)CC1	-0.3%[70.6 µM]
COc1ccc(Cl)cc1C(C(=O)O)N1CCCN(c2ncccn2)CC1 (configuration not stated)	3.0%
COCCc1noc(C2Cc3ccccc3N2C(=O)NCC(=O)OC)n1 (configuration not stated)	1.9%
Cc1cccc(C(=O)N2C(C(=O)NCc3ccco3)COC23CCN(C(=O)c2ccco2)CC3)c1 (configuration not stated)	1.6%
O=C(COc1ccccc1)N[C@@H]1C[C@H](Cn2cc(C3CC3)nn2)[C@@H](O)[C@H]1O	0.4%[70.6 µM]
O=C1OC[C@@H]2CCN(Cc3cnc4ccccc4c3)Cc3ccc(F)cc3N12	7.9%[70.6 µM]
Cc1n[nH]c(C)c1CN1C[C@@H](CO)[C@H](NC(=O)c2ccccc2)C1	4.3%

The last 6 entries of the section before lead into the next.
SMILES	hNpr1 antagonist
COc1ccc(Cl)cc1C(C(=O)O)N1CCCN(c2ncccn2)CC1 (configuration not stated)	3.0%
COCCc1noc(C2Cc3ccccc3N2C(=O)NCC(=O)OC)n1 (configuration not stated)	1.9%
Cc1cccc(C(=O)N2C(C(=O)NCc3ccco3)COC23CCN(C(=O)c2ccco2)CC3)c1 (configuration not stated)	1.6%
O=C(COc1ccccc1)N[C@@H]1C[C@H](Cn2cc(C3CC3)nn2)[C@@H](O)[C@H]1O	0.4%[70.6 µM]
O=C1OC[C@@H]2CCN(Cc3cnc4ccccc4c3)Cc3ccc(F)cc3N12	7.9%[70.6 µM]
Cc1n[nH]c(C)c1CN1C[C@@H](CO)[C@H](NC(=O)c2ccccc2)C1	4.3%
O=C(Cc1ccccn1)N1CCC2(CC1)CCN(Cc1cccs1)c1ccccc1O2	-3.8%
CCOc1ccc(-c2cc3c(=O)n(CCNC(=O)c4ccc(F)c(F)c4)ccn3n2)cc1	1.5%
COCCNc1cc(-c2noc([C@@H]3CCCN3CC(C)C)n2)ccn1	-3.7%[70.6 µM]
COCCNC(=O)[C@@H]1C[C@H](Oc2cccnc2)CN1C(=O)c1cnc(C)cn1	2.8%
O=C(NCCC1CCN(C(=O)Nc2cc(F)cc(F)c2)CC1)c1ccc2nc[nH]c2c1	0.3%
C=CCN1CCN(C(=O)c2nnn3cc(-c4ccccc4)[nH]c(=O)c23)CC1	4.7%
C=C(C)COc1ccccc1C(=O)NC(C(=O)O)c1c(C)n[nH]c1C (configuration not stated)	-0.8%
CN1CCc2[nH]nc(C(=O)N[C@H](c3ccccn3)C3CC(O)C3)c2C1 (some centres not stated)	0.5%
Cc1ccccc1S(=O)(=O)N1CCC2(CC1)CC1C(=O)NCCN1C2 (configuration not stated)	1.9%
COCC(=O)N1CCN(C(=O)Nc2ccccc2)C[C@@H]1C(=O)N[C@@H](Cc1ccc(OC)cc1)C(=O)OC	0.0%
CC1=C[C@@H](CNS(=O)(=O)c2ccc(F)cc2)[C@H](C(C)C)C[C@H]1CC(=O)NCCN(C)C	-0.5%
CN1CCN(c2nc3c(c(=O)[nH]2)CCN(Cc2ccc4cc[nH]c4c2)CC3)CC1	1.6%
Cc1noc(C)c1-c1cc2cc(C(C)C)oc2c(N(C)CCN(C)C)n1	-1.8%[70.6 µM]
Cc1nccn1C(C)C(=O)NCc1cccnc1N(C)Cc1ccccc1 (configuration not stated)	-4.7%
CN(C)c1cccc(C(=O)NC2CCN(c3cc(-c4ccc(Cl)cc4)[nH]n3)C2)c1 (configuration not stated)	-28.5%
O=C(c1ccncc1)N1CCC(Cc2nc(C3CC3)n[nH]2)CC1	0.4%
CN(Cc1noc(C2CCCC2)n1)C(=O)Cn1ncc2ccccc2c1=O	-0.6%
COCCNC(=O)[C@@H]1C[C@H](Oc2ccccc2)CN1C(=O)c1ccc(OC)cc1OC	3.4%
COC(=O)[C@@H]1Cc2c([nH]c3ccccc23)[C@H]2C[C@@H](NCCCn3ccnc3)C[C@@H](c3cccc(Cl)c3)N21	-12.0%
CN1CC(=O)N(C2CCC2)Cc2c1ncnc2N1CCC(O)CC1	3.6%[70.6 µM]
COC1C(=O)N(c2cccc(F)c2)C12CCN(C(=O)C1CCCC1)CC2 (configuration not stated)	-0.1%
COc1cccc(N2CCN(C(=O)c3cc4c(s3)CN(C3CCCC3)C4)CC2)c1	-3.2%
COc1ccc(-c2noc([C@@H]3C[C@@H](O)CN3Cc3cccc(C#N)c3)n2)cc1	?
Cc1cnc(-c2ccccc2)n1CCNC(=O)c1cccnc1	5.5%
Cc1cc(Cl)ccc1NC(=O)C1CN(S(C)(=O)=O)CC12CCCCC2 (configuration not stated)	-10.6%
The results go on.
SMILES	hNpr1 antagonist
COc1ccc(OC2CCN(C(C)=O)CC2)c(C(=O)N2C[C@@H]3CCC[C@H]2C3)c1	3.9%
CN(Cc1ccccc1)C1CCOc2ccccc21 (configuration not stated)	24.5%[70.6 µM]
Cc1ccc(C(=O)N2CCC3(CC2)N(c2ccccc2)C(=O)CS3(=O)=O)cc1F	6.3%
CC(C)N1CCN(C(=O)c2cc3c(=O)[nH]c(-c4ccccc4)cn3n2)CC1	6.8%
Cc1noc(-c2ccc(OC3CN(C(=O)CC4CCCC4)C3)cc2)n1	?
Cc1nccn1CC(=O)N[C@@H]1CN(Cc2ccccn2)C[C@H]1CO	3.7%
CN1CCCCCCN(C(=O)c2cccn2C)[C@H]2CCC[C@H]2C1=O	-1.6%
CN(C)c1ccc(CN[C@H]2CC(C)(C)[C@@H]3C[C@@](C)(O)CC[C@]23CCC(=O)NCc2cccnc2)cc1	4.7%
Cc1cccc(C(=O)N2CCCC(c3noc(COc4ccccc4F)n3)C2)c1 (configuration not stated)	-23.5%
O=C(NC1CC1)C1COC2(CCN(C(=O)c3ccc(F)cc3)CC2)N1C(=O)c1cccc(F)c1 (configuration not stated)	3.7%
Cc1ccccc1N1CCN(C(=O)c2cc3n(n2)CC(c2ccc(Cl)cc2)OC3)CC1 (configuration not stated)	?
O=C(CCn1cncn1)N1CCC2(CC1)[C@H](O)C[C@@H]2OCCO	0.9%
CN(C)S(=O)(=O)N1CCC(c2cc(-c3ccccc3)n[nH]2)CC1	-14.8%
O=C1OCC2(CCN(Cc3ccn[nH]3)C2)N1Cc1ccccc1 (configuration not stated)	-0.7%[70.6 µM]
O=C(c1ccc(F)cc1Cl)N1CCC2(CC1)NC(=O)N(Cc1ccccc1)C2=O	4.5%
Cc1cccc(CN2C[C@@H](C(=O)O)C[C@H](C(=O)N3CCN(C)CC3)C2)n1	-3.2%
CCC(=O)N(C1CCOCC1)C1CCN(S(=O)(=O)c2ccccc2CC)CC1	-2.5%
Cc1noc(C)c1CN1CCN(c2ccc(F)cc2)CC1	-2.2%
Cc1ncc(Cl)c(C(=O)N2CCCn3nc(CO)cc3C2)n1	-2.6%
CC[C@H]1CN(C(=O)c2ccc(F)cc2)CC[C@H]1CC(=O)Nc1ccccc1	3.0%[70.6 µM]
COc1ccccc1CC(=O)N1CCc2c(nc3cc(-c4ccccc4Cl)[nH]n3c2=O)C1	-11.5%
O=C(CCc1cccs1)N1CCCC(CO)(CC2CC2)C1 (configuration not stated)	3.4%
CC(=O)N1CCOc2ccc(CCC(=O)NC(C)Cn3ccc(C)n3)cc2C1 (configuration not stated)	3.7%
Cc1cccc(OCC2(CNC(=O)NC(C)C)C[C@@H](O)[C@@H](O)C2)n1 (some centres not stated)	2.1%[70.6 µM]
Cc1cc(F)ccc1NC(=O)CN1C(=O)NC2(CCC(C(C)(C)C)CC2)C1=O (configuration not stated)	-1.8%
Going on with the list:
SMILES	hNpr1 antagonist
Cc1ccc(CC(=O)N2CCCN(c3cc(-c4ccccc4)[nH]n3)CC2)cc1	-18.2%
CN1CCN([C@H]2[C@@H]3OC[C@@H](O3)[C@@H](NC(=O)Nc3cccc(C(F)(F)F)c3)[C@@H]2O)CC1	0.5%[70.6 µM]
CC(=O)N[C@H]1C[C@@H](Cc2cc(CC(C)C)on2)C1(C)C	4.7%[70.6 µM]
O=C1CCN(Cc2ccncc2F)CCCC(c2nc(-c3cccnc3)no2)CCN1 (configuration not stated)	4.9%
Cc1ccc2nc(C3CCN(Cc4cccc(Cl)c4)CC3)[nH]c(=O)c2c1	2.2%
O=C(O)CCCC(=O)N1CCN2C(=O)c3cc(Br)ccc3NC(=O)[C@H]2C1	5.9%[70.6 µM]
N#Cc1ccc(CN2CCCCCNC(=O)[C@@H]3CCC[C@@H]32)cc1	-8.9%
COC(=O)N1CCCc2nc(C)nc(-c3ccc(O)cc3)c2C1	2.3%[70.6 µM]
COCCN1C(=O)CCc2cc(NC(=O)CC(C)C)ccc21	0.2%
CC1CCN(CC2CCCN(C(=O)Nc3ccccc3F)CC2)CC1 (configuration not stated)	1.0%
COc1ccc(-c2cc(C[C@H]3CNCC[C@H]3CC(=O)NCc3ccc(OC)c(OC)c3)no2)cc1	0.6%
CCc1nc2c(=O)n(CC(=O)N3CCC(Cc4ccccc4)CC3)nc(C)c2s1	0.9%
Cn1ccnc1C(=O)NC1CCc2nnc(C3CC3)n2CC1 (configuration not stated)	0.4%
CCCc1nnc(C[C@@H]2C[C@@H](C(C)C)[C@H](CN3CC[C@H](NC(C)=O)C3)C=C2C)o1	-2.4%[70.6 µM]
COc1cccc(C(=O)NCC2CCCN(C/C(C)=C/c3ccccc3)C2)c1OC (configuration not stated)	-4.0%
CC1(COCC2CC2)COc2ccc(C(=O)NCc3ccccc3)cc2N1 (configuration not stated)	-7.3%[70.6 µM]
CC(C)c1ccc(CN2CCCC3(CCN(c4ncccc4C(N)=O)C3)C2)cc1 (configuration not stated)	-6.5%
Cc1cc(C(=O)NCC(=O)N2CCCCCNC(=O)CC2c2ccccc2)nn1C (configuration not stated)	1.9%
COCCC(=O)N1CCC2(CC1)C(=O)N(C)c1ccccc12	2.5%
O=C(COc1ccc(F)cc1)N1CCC(Oc2ccc(-c3noc(C4CC4)n3)cc2)C1 (configuration not stated)	11.2µM*
CCS(=O)(=O)c1ncc(CN(C)CCOc2ccc(C)cc2)n1Cc1ccccc1	-3.3%
CCn1cc(CN2CCCC(c3nc(-c4cnccn4)no3)CCNC(=O)CC2)c(C)n1 (configuration not stated)	0.4%
Cc1cnc(CCNC(=O)C2CCCC2)n1Cc1ccc(F)cc1	4.1%
CCOc1ccc(C(=O)NC2CCN(c3cnn(CC4CC4)c(=O)c3)CC2)cc1	-3.5%
CN1CCCC2(CCN(C(=O)CCCOc3ccccc3)C2)C1=O (configuration not stated)	0.8%

Structural class: those above with a CF3 group (2)
SMILES	hNpr1 antagonist
Cc1c[nH]c(C(=O)N2CCCC(CCc3cccc(C(F)(F)F)c3)C2)c1 (configuration not stated)	-12.3%
CN1CCN([C@H]2[C@@H]3OC[C@@H](O3)[C@@H](NC(=O)Nc3cccc(C(F)(F)F)c3)[C@@H]2O)CC1	0.5%[70.6 µM]

In a second layout: entries from further up.
COCCNc1cc(-c2noc([C@@H]3CCCN3CC(C)C)n2)ccn1
  hNpr1 antagonist = -3.7%[70.6 µM]

CC1(COCC2CC2)COc2ccc(C(=O)NCc3ccccc3)cc2N1 (configuration not stated)
  hNpr1 antagonist = -7.3%[70.6 µM]

The results go on:
SMILES	hNpr1 antagonist
CC(=O)c1cccc(NC(=O)O[C@H]2COCCN(c3nc4ccccc4o3)C2)c1	-3.1%[70.6 µM]
COc1cccc(C(=O)N2CCC(C(NC(=O)c3ccccc3)C(=O)NCc3ccco3)CC2)c1 (configuration not stated)	0.6%
CCCCN1C(=O)c2ccccc2C(C(=O)NCc2ccccn2)C12CCCCC2 (configuration not stated)	0.1%
CN(C)CCCNC(=O)C1CC(=O)N(c2n[nH]c3cc(Br)ccc23)C1 (configuration not stated)	4.8%
Cc1cc(C)c(CNC(=O)c2cc(-c3ccccc3O)cc3c2OCCN3C(C)C)c(=O)[nH]1	-12.0%
CN1CCCCCC(O)c2cc(C(=O)N3CCN(Cc4ccccc4)CC3)ccc21 (configuration not stated)	-24.0%

High-throughput results as filed in PubChem.
